# HPGD block – blocks human HPGD enzyme activity; purified HPGD, NADH fluorescence kinetic, PGE2 substrate; Potency, µM, without a hit: at the top dose activity change, negative = inhibition, most hits filed as inhibitors; hit rate 4.3% among 150,000; AID 894; active = well fitted inhibition curve with a large enough effect (not every such curve was filed as active); inconclusive = small, poorly fitted or top-dose-only effect, or another doubt; inactive = no such curve, though single readings can be large or run the other way;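 further: top concentration of the series not given in the record; plate controls included wells without enzyme; inactives centre near -10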
# Target sequence (P15428 whole entry, looked up): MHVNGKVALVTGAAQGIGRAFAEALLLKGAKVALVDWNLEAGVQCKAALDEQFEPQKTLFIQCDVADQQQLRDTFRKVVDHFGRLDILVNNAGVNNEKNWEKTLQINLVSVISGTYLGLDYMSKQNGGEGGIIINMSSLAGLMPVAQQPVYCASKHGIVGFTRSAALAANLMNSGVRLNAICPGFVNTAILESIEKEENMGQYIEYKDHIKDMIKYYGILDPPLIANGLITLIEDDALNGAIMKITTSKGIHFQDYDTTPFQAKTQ
#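 NADH formation kinetics: reaction with 30 uM PGE2 and 1 mM NAD+ (final), 20 nM enzyme, Tris-HCl pH 8 with Tween 20, after 15 min compound preincubation at room temperature. Fluorescence change, last versus first of five reads.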
# Active calls of the source: *; u = inconclusive; & = joins results of further samples. On the % scale 0 is the no-effect control and ±100 the full control effect; potency means the concentration at half of the fitted maximal effect.
HPGD block	Molecule
2%	O=C(CSc1nnc(-c2ccncc2)n1-c1ccccc1)N1CCN(c2ccc(Cl)cc2)CC1
-4%	CCOc1ccc(NC(=O)CSc2nc3ccccc3c(=O)n2CCNC(C)=O)cc1
-9%	O=C(CN1C(=O)c2ccccc2C1=O)N1CCN(C2c3ccccc3-c3ccccc32)CC1
-18%	Cc1ccc(N=Cc2sc(O)c3ccccc23)cc1
-18%	Cc1ccc(C(=O)Nc2ccc([N+](=O)[O-])cn2)o1
-15%	Cc1cc2cc(CNS(=O)(=O)N(C)C)ccc2[nH]1
-9%	c1cncc(-c2cc(-c3cc(-c4cccnc4)n[nH]3)[nH]n2)c1
u	CC1CCN(C(c2cc3cc4c(cc3[nH]c2=O)OCO4)c2nnnn2CC2CCCO2)CC1 (stereo not drawn)
-25%	CC1CCCN(C2=C(NS(=O)(=O)c3ccc(Cl)cc3)C(=O)c3ccccc3C2=O)C1 (stereo not drawn)
2%	CC1CCN(c2ccc(NC(=O)c3cccnc3)cc2)CC1
-8%	COC(=O)c1sccc1NC(=O)c1c(C)cc(=O)oc1C
-1%	CC(C)(C)OC(=O)[C@H](C1N[C@@H](C(=O)O)C(C)(C)S1)N1C(=O)c2ccccc2C1=O (stereo partly drawn)
-17%	COc1ccc(CNC(=O)COC(=O)c2cccnc2Nc2cccc(C(F)(F)F)c2)cc1
-23%	CC1CCN(c2ccc(C(=O)NCc3ccco3)cc2[N+](=O)[O-])CC1
-24%	O=C(Nc1cnc2ccccc2c1)c1ccncc1
-15%	CN(C)/C=C1/C(=O)N(c2ccc([N+](=O)[O-])cc2)N=C1c1ccccc1
-22%	COc1ccc(CCNC(=O)CSc2nnc(-c3ccccc3)o2)cc1OC
-8%	C[C@@H]1C[C@](C)(C(=O)c2ccco2)C=C1c1ccco1
-3%	CCOCCCNC(=O)c1ccc(CS(=O)(=O)Cc2ccccc2F)o1
-7%	N/C(=N\OC(=O)c1ccc(Cl)cc1)c1ccccn1
-9%	CC1(C)CC(=O)C2=C(C1)N(Cc1ccc(F)cc1)C(=O)C2(NC(=O)c1cccnc1)C(F)(F)F (stereo not drawn)
-6%	Cc1c(NC2=NC(C)(C)Cc3ccccc32)c(=O)n(-c2ccccc2)n1C
-6%	O=C(CSc1nc(O)cc(=O)n1-c1ccccc1)Nc1ccc2c3c(cccc13)CC2
16µM*	COc1ccccc1OCCNC(=O)c1cccs1
-13%	CCOc1cc(NS(=O)(=O)c2ccc(OC)cc2)c(OCC)cc1NC(=O)c1ccco1
25µM*	CCOc1cccc(-c2nnc3n2N=C(c2cc(OC)ccc2OC)CS3)c1
-14%	CCCCCCn1c(SCC(=O)Nc2cc(C)on2)nc2ccccc2c1=O
2%	CCOC(=O)C1CCCN(c2c(NCCN3CCCCC3C)c(=O)c2=O)C1 (stereo not drawn)
-16%	C=CCc1cccc([C@@H]2[C@@H](C)CC[C@H]3C(=O)N4[C@@H](c5cc(OC)c(OC)c(OC)c5)c5[nH]c6ccccc6c5C[C@H]4C(=O)N23)c1
-13%	O=C(c1nc(-c2ccccc2)n(-c2ccccc2)n1)N1CCN(S(=O)(=O)c2ccccc2)CC1
-5%&-6%	COC(=O)C1=C(C)N(Cc2ccco2)C(=O)N[C@@H]1c1cccc(C(F)(F)F)c1
-10%	CCCCOc1ccc(C(=O)N/C(=C/C=C/c2ccccc2)C(=O)NC)cc1
-9%	Cc1cccc(C)c1NC(=O)C(c1ccc(Cl)cc1Cl)N1CCCCC1 (stereo not drawn)
-8%	Cc1cc2c(=O)[nH]c(Cc3ccccc3)nc2s1
-9%	COc1ccc(CCNc2ccc(C)cc2)cc1
u	COc1ccc(-c2nc(C#N)c(NC(C)C)o2)cc1
-10%	COc1ccc(-c2nnc(SCC(=O)c3cccs3)o2)c(OC)c1
-9%	COC(=O)c1oc2ccc(Cl)cc2c1NC(C)=O
-2%	CCOc1ccccc1NC(=O)Cn1nnc(C(=O)Nc2ccccc2Cl)c1N
u	C=CCNc1oc(-c2cccs2)nc1C#N
-6%	Cc1ccc(NCC(=O)N/N=C\c2ccc([N+](=O)[O-])o2)cc1
-15%	CC1=NN(/C(=N\c2nnc(C)s2)Nc2ccccc2)[C@H](c2cccc3ccccc23)S1
-9%	COC(=O)c1cc(OC)c(OC)cc1NC(=S)N1CCN(c2ccccc2)CC1
-7%	O=C(COc1ccccc1)NNC(=O)c1cc2ccccc2o1
0%	Cc1cc2nc(C(F)(F)F)[nH]c(=O)n2n1
1%	O=C(O)c1cccc(Cn2cc(Cl)cn2)c1
-16%	Cc1ccc(C(=O)COC(=O)CCc2nc3ccccc3[nH]c2=O)cc1C
-24%	CCC(OCC(O)CN1CCN(CCN2C(=O)c3cccc4cccc(c34)C2=O)CC1)c1ccccc1 (stereo not drawn)

# 28 entries already listed, ordered by formula weight, smallest number first:
HPGD block	Molecule
0%	Cc1cc2nc(C(F)(F)F)[nH]c(=O)n2n1
u	C=CCNc1oc(-c2cccs2)nc1C#N
1%	O=C(O)c1cccc(Cn2cc(Cl)cn2)c1
-9%	COc1ccc(CCNc2ccc(C)cc2)cc1
-8%	Cc1cc2c(=O)[nH]c(Cc3ccccc3)nc2s1
u	COc1ccc(-c2nc(C#N)c(NC(C)C)o2)cc1
-9%	COC(=O)c1oc2ccc(Cl)cc2c1NC(C)=O
-7%	N/C(=N\OC(=O)c1ccc(Cl)cc1)c1ccccn1
16µM*	COc1ccccc1OCCNC(=O)c1cccs1
-6%	Cc1ccc(NCC(=O)N/N=C\c2ccc([N+](=O)[O-])o2)cc1
-6%	Cc1c(NC2=NC(C)(C)Cc3ccccc32)c(=O)n(-c2ccccc2)n1C
-10%	COc1ccc(-c2nnc(SCC(=O)c3cccs3)o2)c(OC)c1
-16%	Cc1ccc(C(=O)COC(=O)CCc2nc3ccccc3[nH]c2=O)cc1C
2%	CCOC(=O)C1CCCN(c2c(NCCN3CCCCC3C)c(=O)c2=O)C1 (stereo not drawn)
-10%	CCCCOc1ccc(C(=O)N/C(=C/C=C/c2ccccc2)C(=O)NC)cc1
-3%	CCOCCCNC(=O)c1ccc(CS(=O)(=O)Cc2ccccc2F)o1
-9%	Cc1cccc(C)c1NC(=O)C(c1ccc(Cl)cc1Cl)N1CCCCC1 (stereo not drawn)
-5%&-6%	COC(=O)C1=C(C)N(Cc2ccco2)C(=O)N[C@@H]1c1cccc(C(F)(F)F)c1
25µM*	CCOc1cccc(-c2nnc3n2N=C(c2cc(OC)ccc2OC)CS3)c1
-14%	CCCCCCn1c(SCC(=O)Nc2cc(C)on2)nc2ccccc2c1=O
-2%	CCOc1ccccc1NC(=O)Cn1nnc(C(=O)Nc2ccccc2Cl)c1N
-9%	COC(=O)c1cc(OC)c(OC)cc1NC(=S)N1CCN(c2ccccc2)CC1
-6%	O=C(CSc1nc(O)cc(=O)n1-c1ccccc1)Nc1ccc2c3c(cccc13)CC2
-15%	CC1=NN(/C(=N\c2nnc(C)s2)Nc2ccccc2)[C@H](c2cccc3ccccc23)S1
-13%	CCOc1cc(NS(=O)(=O)c2ccc(OC)cc2)c(OCC)cc1NC(=O)c1ccco1
-13%	O=C(c1nc(-c2ccccc2)n(-c2ccccc2)n1)N1CCN(S(=O)(=O)c2ccccc2)CC1
-24%	CCC(OCC(O)CN1CCN(CCN2C(=O)c3cccc4cccc(c34)C2=O)CC1)c1ccccc1 (stereo not drawn)
-16%	C=CCc1cccc([C@@H]2[C@@H](C)CC[C@H]3C(=O)N4[C@@H](c5cc(OC)c(OC)c(OC)c5)c5[nH]c6ccccc6c5C[C@H]4C(=O)N23)c1

# Additional compounds follow:
HPGD block	Molecule
-3%	O=C(NCc1ccccn1)C1CCN(Cc2cccc(OCc3ccccc3)c2)CC1
-13%	CN1/C(=C/C=C(/C#N)C(N)=O)C(C)(C)c2ccccc21
-4%	Cc1ccc2cc(C(c3nnnn3Cc3ccccc3)N3CCc4ccccc43)c(=O)[nH]c2c1 (stereo not drawn)
-21%	COc1ccc(N=CC2=C(O)c3ccccc3C2=O)c(OC)c1
-4%	CCCCOc1nc2ccccc2nc1C(C#N)S(=O)(=O)c1ccccc1 (stereo not drawn)
-9%	Cc1ccc2occ(C(c3nnnn3Cc3ccccc3)N3CCOCC3)c(=O)c2c1 (stereo not drawn)
16µM*	COc1ccc(C(=S)N2CCCCCC2)cc1
-8%	N#Cc1c2c(c(NCc3ccco3)n3c1nc1ccccc13)CCC2

# Part of the list above in order of length of the SMILES, lowest first.
HPGD block	Molecule
-13%	CN1/C(=C/C=C(/C#N)C(N)=O)C(C)(C)c2ccccc21
-4%	CCCCOc1nc2ccccc2nc1C(C#N)S(=O)(=O)c1ccccc1 (stereo not drawn)
-3%	O=C(NCc1ccccn1)C1CCN(Cc2cccc(OCc3ccccc3)c2)CC1

# Next part.
HPGD block	Molecule
-19%	Cc1[nH]c2ccccc2c1C(c1ccccn1)N1CCC(C(N)=O)CC1 (stereo not drawn)
28µM*	O=c1c2c(-c3cccs3)csc2[nH]c(=S)n1-c1ccccc1
-16%	O=C(COc1ccccc1)NC1CCCc2ccccc21 (stereo not drawn)
-12%	C=CCc1c(C)nc(C)nc1N/N=C/c1ccc(F)cc1

# The list is partial; rates above refer to the full screens.
